Tau fluor counter: counter-screen for tau fibril formation inhibitors | tau K18 P301L Alexa594 fluorescence, heparin fibrillization | AID 1463 | Potency, µM (titrated, usually from 57.7 µM), for the others: top-dose activity change, negative = decrease | 0.93% of 280,000 active; further: on the % scale 0 is the no-effect control and ±100 the full control effect; nearly all actives have a fitted effect of over 55% in size
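Human K18 P301L tau (15 uM unlabeled plus 0.24 uM Alexa 594-labeled, final) in 100 mM sodium acetate pH 7 was mixed with compound and 20 uM heparin and incubated 6 hr at 37 C.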
HTT cytoprotect: protects HTT-Q103 PC12 cells, measured by ATP; PC12 HTT-Q103 induced, cytoprotection, ATP luminescence, 40 h; Potency, µM (series often up to 56.4 µM), without a hit: cytoprotection (ATP increase), most hits filed as activators; 0.14% of 230,000 active; AID 1471;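 further: % of control where 0% means no effect; nearly all actives have a fitted effect of over 45% in size; toxic huntingtin expression switched on by the ecdysone agonist tebufenozide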
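Rat PC12, Q103 Htt exon1-GFP fusion, ecdysone promoter; tebufenozide inducer 100 nM final; compound titration; qHTS, 1500 cells/well; ATPlite luminescent read.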
Tau fibril FP: tau fibrillization inhibition (FP) | P10636 | K18 P301L tau heparin fibrillization, Alexa594 FP, 6 h | Potency, µM (titrated, usually from 57.7 µM), for inactives: top-dose activity, negative = inhibition, usual class: inhibitors | 0.39% of 280,000 active; further: on the % scale 0 is the no-effect control and ±100 the full control effect; nearly all actives have a fitted effect of over 55% in size
Target sequence (P10636 561-689 P618L limits assumed): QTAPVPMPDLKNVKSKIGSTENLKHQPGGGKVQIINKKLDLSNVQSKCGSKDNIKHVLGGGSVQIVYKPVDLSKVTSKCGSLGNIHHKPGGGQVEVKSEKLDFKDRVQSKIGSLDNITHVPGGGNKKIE
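Recombinant K18 P301L […], labeled with Alexa 594 at 0.24 uM over 15 uM unlabeled; heparin inducer 20 uM final; 37 C, 6 hr; FP endpoint.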
SMN2 splice enh: enhancers of SMN2 splice variant expression | HEK293 SMN2-luciferase splicing reporter, luminescence, 30-36 h | Potency, µM (titrated, usually from 46.1 µM), without a hit: top-dose activity change, positive = activation, most hits filed as activators | 2.8% of 210,000 active; further: % of control where 0% means no effect; nearly all actives have a fitted effect of over 55% in size
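HEK293 cells carry an SMN2 […]–luciferase reporter in which exon 7 inclusion puts luciferase in frame. Cells were plated 10-12 h before compound addition, then incubated 30-36 h at 37C. ONE-Glo luminescence was read; sodium butyrate at 4.5 mM final served as control.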
JMJD2E inh: inhibitors of human JMJD2E histone demethylase; B2RXH2; JMJD2E catalytic domain, FDH-coupled NADH fluorescence (FDH is formaldehyde dehydrogenase); Potency, µM (series often up to 57.1 µM), inactives show at the highest dose activity change, negative = inhibition, most hits filed as inhibitors; 1.6% of 230,000 active; AID 2147; active means well fitted inhibition curve with a large enough effect, not every such curve was filed as active; inconclusive means small, poorly fitted or top-dose-only effect, or another doubt; inactive means no such curve, though single readings can be large or run the other way;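 further: 0% = wells with enzyme and -100% = buffer wells without enzyme; nearly all actives have a fitted effect of over 50% in size; many of its hits are not listed in these tables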
Target sequence (B2RXH2 1-337 limits assumed): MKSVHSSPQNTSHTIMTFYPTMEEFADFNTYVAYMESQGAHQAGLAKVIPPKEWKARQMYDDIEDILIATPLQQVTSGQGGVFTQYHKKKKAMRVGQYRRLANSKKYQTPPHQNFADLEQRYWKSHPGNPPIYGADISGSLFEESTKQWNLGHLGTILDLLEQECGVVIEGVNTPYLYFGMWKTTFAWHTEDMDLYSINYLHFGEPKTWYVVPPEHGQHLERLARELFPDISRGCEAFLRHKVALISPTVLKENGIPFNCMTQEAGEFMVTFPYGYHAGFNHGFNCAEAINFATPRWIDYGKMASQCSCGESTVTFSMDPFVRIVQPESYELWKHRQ
Tau fibril ThT: tau fibrillization inhibition (ThT binding); recombinant tau K18 P301L (four-repeat tau fragment), heparin-induced fibrillization, ThT fluorescence; AID 1460; 2.1% of 270,000 active; P10636; Potency, µM (highest dose often 57.4 µM), for the others: top-dose activity, negative = inhibition, usual class: inhibitors; further: on the % scale 0 is the no-effect control and ±100 the full control effect; nearly all actives have a fitted effect of over 55% in size
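K18 P301L tau (15 uM + 0.24 uM Alexa 594-tagged), heparin 20 uM, NaOAc pH 7, 6 h 37 C; ThT 30 uM, 1 h RT, ex 450/em 510 nm.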
HttQ103 aggreg: inhibitors of mutant huntingtin aggregate formation in PC12 cells; PC12 HttQ103-GFP aggregates, Acumen cytometry, 40 h; Potency, µM (series often up to 46.1 µM), inactives show at the highest dose activity change, negative = inhibition, actives largely listed as inhibitors; 1.1% of 220,000 active; further: on the % scale 0 is the no-effect control and ±100 the full control effect; nearly all actives have a fitted effect of over 60% in size
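Aggregate formation scored by laser-scanning cytometer (488 excitation, 500–530 emission) in lysed PC12 cells expressing Q103-GFP after 100 nM tebufenozide induction; library tested in dose series, with ATPLite reagent added in the multiplex.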
Numbers without * were called inactive; u = inconclusive; x = no result given; [ ] = dose if it differs, or a comment. Unless noted, the call rests on the fitted dose curve; in most records, active means well fitted curve in the direction sought with a large enough effect; inconclusive means small, poorly fitted or top-dose-only effect, or another doubt; inactive means no such curve, though single readings can be large; an effect the other way counts as inactive or inconclusive. Potency means the concentration at half of the fitted maximal effect. The list is partial; rates above refer to the full screens.

Results follow in this order: Tau fluor counter	HTT cytoprotect	Tau fibril FP	SMN2 splice enh	JMJD2E inh	Tau fibril ThT	HttQ103 aggreg
Cc1cccc(-n2c(O)c(/C=N/NC(=O)c3ccccc3Cl)c3ccccc3c2=O)n1
    -7%	9%[10 µM]	1%	-22%	u	-9%	u
CN(C)S(=O)(=O)N1CCCC(C(=O)c2ccc(-c3ccccc3)cc2)C1 (configuration not stated)
    -4%	19%[10 µM]	0%	x	7%	0%	-4%[9.22 µM]
CN(C)S(=O)(=O)N1CCC(CCCC2CCN(S(=O)(=O)N(C)C)CC2)CC1
    -3%	-3%	-1%	-28%	5%	-13%	-30%
Cc1nc(CNS(=O)(=O)c2ccc3ccccc3c2)cs1
    0%	7%	-1%	-28%	-1%	-1%	-27%
O=C(Nc1cccnc1)c1cccc(F)c1
    3%	x	-5%	12%	2%	4%	18%
N/C(=N\OC(=O)c1ccccc1Cl)c1ccc(Cl)cc1
    -1%	-9%[10 µM]	-2%	16µM*	11%	-4%	3%
O=C(NNS(=O)(=O)c1ccccc1)c1sccc1-n1cccc1
    -2%	-31%	-2%	0%	1%	-10%	13%
COc1ccc(OCCNC(=O)c2ccccc2OCC(=O)Nc2ccc(NC(C)=O)cc2)cc1
    7%	x	3%	-79%[inhibitor]	3%	10%	11%
CS(=O)(=O)N1CCN(c2nc(-c3ccccc3)cs2)CC1
    -24%	-9%	-5%	9%	-5%	-11%	-14%
CCOC(=O)CCC(=O)N1CCNC(=O)C1
    -2%	11%[10 µM]	-2%	9%	12%	-6%	-7%
O=C(CCSCCc1ccccn1)Nc1cccc([N+](=O)[O-])c1
    -15%	15%	-9%	-6%	7%	-8%	-8%
CCCN1CCN(c2nc3c([nH]2)c(=N)ncn3CC(O)CO)CC1 (configuration not stated)
    -3%	6%	-9%	1%	3%	0%	15%
Cc1ccc(N(C(=O)CC2NC(=O)NC2=O)C2(C(=O)NC3CCCC3)CCCCC2)cc1 (configuration not stated)
    -2%	-7%[10 µM]	3%	-1%	0%	2%	-17%
CSc1ccccc1C(=O)C1CCCN(S(=O)(=O)c2c(C)noc2C)C1 (configuration not stated)
    -22%	-19%[10 µM]	1%	x	2%	-17%	1%[9.22 µM]
COc1ccccc1NC(=O)CN1C(=O)CSC(C)C1=O (configuration not stated)
    3%	6%[10 µM]	1%	4%	3%	2%	6%
Nc1nc(-c2ccco2)cs1
    -11%	5%	-9%	10%	5%	u	3%
Nc1nnc(SCc2c(F)cccc2Cl)s1
    -8%	6%[10 µM]	-1%	x	-1%	-5%	4%[9.22 µM]
COc1ccc(C(CNC(=O)c2ccco2)N2CCCCC2)cc1 (configuration not stated)
    1%	-36%	-10%	4%	6%	-1%	-3%
COc1ccc(CC(=O)NC(C)c2nnc(SCCOc3ccc(OC)cc3)n2C)cc1 (configuration not stated)
    -11%	11%	-6%	-23%	0%	-19%	-19%
COc1nc(NS(=O)(=O)c2ccc(C)cc2)nc(C)c1Cl
    -8%	-4%	-1%	u	-2%	-7%	31%
CCC(C)NC(=O)COC(=O)c1cccnc1Nc1ccccc1F (configuration not stated)
    -5%	-24%[10 µM]	5%	5%	u	6%	1%
CCCCC(=O)C1CCN(Cc2ccccc2)CC1
    1%	10%	3%	-6%	-10%	-2%	2%
CC1CCc2nc(NC(=O)Nc3ccc4c(c3)OCO4)sc2C1 (configuration not stated)
    -6%	-3%[10 µM]	6%	x	0%	0%	2%
COc1ccc(N2CCN(C(=S)NC(C)c3ccccc3)CC2)cc1 (configuration not stated)
    u	-4%	6%	-40%[inhibitor]	0%	u	-5%
CCOC(=O)N1CCN(c2ncnc3nc[nH]c23)CC1
    -1%	3%[10 µM]	1%	11%	-3%	u	-23%
CSc1nnc(-c2ccccc2N=Cc2c(C)[nH]n(-c3ccccc3)c2=O)c(=O)[nH]1
    2%	-29%	-3%	14%	0%	-11%	-3%
O=C(Nc1ccccc1)/C(=C1\CCCN1)[N+](=O)[O-]
    4%	-13%[10 µM]	3%	6%	8%	3%	14%
O=C(NCCCN1CCOCC1)c1ccc(CSCc2cccc(Cl)c2)o1
    -10%	-31%[inhibitor]	-12%	-13%	3%	-6%	-1%
CCCC1(C(=O)OC)NC(c2ccco2)C2C(=O)N(c3ccc(C)cc3)C(=O)C21 (configuration not stated)
    -9%	5%	4%	x	-2%	-16%	4%
O=C(CSc1nnc(-c2ccc(C(F)(F)F)cn2)s1)c1ccc(Cl)cc1
    -9%	-10%[10 µM]	6%	x	-2%	u	-2%[9.22 µM]
C[C@@H]1CN(Cc2cn(C)nc2-c2cccc(Cl)c2)C[C@H](C)O1
    -1%	17%[10 µM]	2%[2.34 µM]	x	5%	1%	-6%[9.22 µM]
CC(C)NC(=O)COC(=O)C1CSC2(c3ccc(Br)cc3)CCC(=O)N12 (configuration not stated)
    3%	u	4%	9%	-1%	0%	18%
O=C(O)c1cc(C(=O)O)cc(N2C(=O)c3ccccc3C2=O)c1
    x	7%[10 µM]	x	-6%[9.22 µM]	x	x	x
CCOC(=O)C1(Cc2cccc(OC)c2)CCN(CCO)CC1
    1%	-6%[10 µM]	-2%	x	1%	1%	-17%[9.22 µM]
CCn1c(=O)c2c(nc3n2CCS3)n(C)c1=O
    2%	12%	1%	7%	0%	-7%	1%
COc1ccccc1OCCSc1nnc(C)n1-c1ccccc1
    -11%	12%	-16%	-39%[inhibitor]	5%	-9%	1%[9.22 µM]
CCOc1ccc(/C(O)=C2/C(=O)C(=O)N(c3ncccn3)C2c2ccccc2)cc1 (configuration not stated)
    3%	x	7%	25%	-3%	-5%	1%
COc1ccc(OCCSc2ncccn2)cc1
    -2%	-18%	5%	14µM*	2%	-12%	-4%
COc1cccc(NC(=O)CN(C)CC(=O)Nc2ccc(Cl)cc2[N+](=O)[O-])c1
    u	-12%	5%	-16%	1%	u	-7%
Cc1ccc(C(=O)Nc2c3c(nn2C(C)(C)C)CS(=O)(=O)C3)cc1C
    4%	8%[10 µM]	4%	-9%	2%	-3%	-12%
CCN(CC)C(=O)c1cn(CCC#N)nc1-c1ccc2c(c1)OCCO2
    -8%	-36%[inhibitor]	-6%	-19%	3%	-2%	-4%
O=C1c2oc3ccc(F)cc3c(=O)c2C(c2cccc(O)c2)N1CCCN1CCOCC1 (configuration not stated)
    -9%	2%	3%	3%	u	-6%	-10%
Cc1ccc2nc(NNC(=O)c3ccc4c(c3)OCCO4)sc2c1
    -25%	x	-3%	-10%	u	u	-18%
Cc1cc(OCCCCn2ccnc2)cc(C)c1Cl
    -8%	-26%	1%	-59%[inhibitor]	2%	-6%	-18%
NCCNc1ccc([N+](=O)[O-])c(Sc2nc3ccccc3[nH]2)c1
    u	x	-5%	-19%	-14%	u	7%
N#Cc1cccc(NC(=O)N2CCC3(CC2)CCN(C(=O)c2cnccn2)CC3)c1
    x	-10%	x	-14%	x	x	x
CN(C(=O)COC(=O)c1cn(-c2ccccc2)nc1-c1ccccc1)C1CCS(=O)(=O)C1 (configuration not stated)
    -15%	-38%[inhibitor]	-4%	-5%	-2%	1%	-1%
O=C(CC1C(=O)NCCN1Cc1ccccc1C(F)(F)F)NCCn1cccn1 (configuration not stated)
    4%	-19%[10 µM]	-2%	x	-5%	5%	1%[9.22 µM]
O=C(Cn1nnc(-c2ccccc2)n1)Nc1ccc2c(c1)OCO2
    -6%	0%	-14%	-10%	1%	-2%	-14%
Cn1c(SCC(=O)Nc2ccc3c(c2)OCO3)nnc1-c1cnccn1
    -6%	-1%	-1%	4%	8%	-12%	9%
COc1ccccc1-c1cc(SC)c(C#N)c(=O)o1
    1%	x	-9%	-14%	-3%	u	u
O=C(c1ccccc1Cl)N(Cc1ccc(Br)cc1)N1C(=O)CCC1=O
    -9%	-27%	3%	-4%	-4%	-6%	u
Cc1c(NC(=O)c2ccc(-c3cccc([N+](=O)[O-])c3)o2)c(=O)n(-c2ccccc2)n1C
    5%	1%[10 µM]	6%	-2%	0%	-4%	-20%[9.22 µM]
CC(C)(O)C#Cc1ccc(C(=O)N2CCN(C(=O)c3ccco3)CC2)cc1
    4%	1%	-2%	-25%	-2%	4%	-12%
Clc1ccsc1-c1ccc2ccccc2n1
    -13%	11%	1%	u	u	-18%	21%
O=c1c2ccccc2nnn1CCN1CCOCC1
    1%	6%[10 µM]	0%	x	-1%	-1%	5%[9.22 µM]
N#CCC(=O)c1ccccc1Oc1ccc(Cl)cc1
    -19%	-47%	-3%	-7%	3%	u	8%
Nc1nc(CSc2ncccn2)nc(Nc2ccccc2)n1
    -5%	-30%	10%	14µM*	2%	-1%	u
CC1=CC(=O)[C@H]2C(C)(C)CCC[C@]2(C)[C@@]1(O)CO
    -3%	-15%[10 µM]	-2%	x	-1%	4%	-19%[9.22 µM]
O=c1c(C/C=C/c2ccccc2)c(O)nc2n1CCCS2
    -1%	4%	3%	-5%	-6%	-9%	1%

Going on with the list:
Results follow in this order: Tau fluor counter	HTT cytoprotect	Tau fibril FP	SMN2 splice enh	JMJD2E inh	Tau fibril ThT	HttQ103 aggreg
Cc1ccc(C(=O)NNC(=O)CSc2nnc3c(n2)[nH]c2ccc(C)cc23)cc1
    -2%	-20%	-20%	20%	5%	-2%	27%
OCCCNCc1ccc(Cl)cc1Cl
    4%	10%	5%	-9%	-2%	6%	-1%[9.22 µM]
O=C(Cn1c(C(F)(F)F)nc2ccccc21)c1ccccc1
    2%	-2%	2%	-12%	2%	5%	-23%
COc1ccc(-n2c(Cc3cccn3C)nnc2SCC(=O)NCc2ccco2)cc1
    -4%	-4%	-5%	-9%	-4%	-8%	11%
Cc1ccccc1C(=O)OCc1cnc(Cl)s1
    -1%	-22%	-5%	-2%	14%	-1%	-1%[9.22 µM]
O=C(Nc1ccccc1C(F)(F)F)c1ccccn1
    -4%	-2%	-3%	-1%	3%	-1%	25%
CC1=NOC(=O)/C1=C/c1ccc(O)cc1
    6%	-1%[10 µM]	4%	1%	28µM*	-7%	-2%[9.22 µM]

Entries of single compounds, looked up by structure. Values in the order: Tau fluor counter, HTT cytoprotect, Tau fibril FP, SMN2 splice enh, JMJD2E inh, Tau fibril ThT, HttQ103 aggreg
O=C(Cn1c(C(F)(F)F)nc2ccccc21)c1ccccc1 across the screens: 2%, -2%, 2%, -12%, 2%, 5%, -23%
O=C(Nc1ccccc1C(F)(F)F)c1ccccn1 across the screens: -4%, -2%, -3%, -1%, 3%, -1%, 25%
CC1=NOC(=O)/C1=C/c1ccc(O)cc1 across the screens: 6%, -1%[10 µM], 4%, 1%, 28µM*, -7%, -2%[9.22 µM]
